Screening results from PubChem BioAssay.
GIV Gai3 FP: blocks GIV peptide binding to rat Galpha-i3; P08753; Galpha-i3/FITC-GIV peptide fluorescence polarization, 90 min; stronger effect = lower value; scaled: aluminum fluoride 0%, vehicle 100%; percent of control (FP), % (no concentration beside the values); 210,000 tested, 0.42% active; AID 1224905;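 active = replicate mean at 85% of control or lower, very high polarization wells dropped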;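 also: wells of about 15 µL received 100 nL stock; the first replicate is given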
Target sequence (P08753 whole entry, looked up): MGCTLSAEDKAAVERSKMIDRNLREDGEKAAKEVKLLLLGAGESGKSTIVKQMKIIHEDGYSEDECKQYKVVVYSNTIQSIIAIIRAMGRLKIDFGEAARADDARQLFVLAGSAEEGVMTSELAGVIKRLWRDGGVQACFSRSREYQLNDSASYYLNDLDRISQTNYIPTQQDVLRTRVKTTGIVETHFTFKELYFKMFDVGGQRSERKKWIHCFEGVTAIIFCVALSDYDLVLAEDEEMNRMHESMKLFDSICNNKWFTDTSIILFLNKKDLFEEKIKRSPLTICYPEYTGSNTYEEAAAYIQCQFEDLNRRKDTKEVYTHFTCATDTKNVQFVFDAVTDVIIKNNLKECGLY
HCMV NEC inh: disrupts HCMV UL50-UL53 complex binding. 190,000 tested, 0.15% active. inhibition, % (no concentration beside the values). HTRF UL50-UL53 interaction, normalized percent inhibition;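 active = both replicates at 50% or more, plus weaker picks with an unusually low signal ratio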;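 also: stock transfer was 100 nL into about 20 µL; 0% = negative control wells and 100% = wells with untagged competitor protein; inactives centre near -12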
Sa growth inh: blocks Staphylococcus aureus growth | AID 720641 | 170,000 tested, 0.53% active | relative growth, % (no concentration beside the values) | S. aureus RN4220 growth, OD600, 20 h, 42 °C; stronger effect = lower value;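 active = growth at 42 °C up to 50% and 20 or more points under that at 30 °C, or under 10% at both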;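 also: 300 nL library stock went into each well; scaled to the means of positive and negative controls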
Sa growth inh second temp: also measured in Sa growth inh; calls as there; relative growth, %; measured here: growth at 30 °C;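 optical density after 20 h as mean of two plates; 100% = untreated growth and lower means inhibition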
* = called active by the depositor; x = not tested or not shown.

SMILES	GIV Gai3 FP	HCMV NEC inh	Sa growth inh	Sa growth inh second temp
O=C(CC1SC(=NCC2CCCO2)NC1=O)Nc1cccc2ccccc12 (stereo not drawn)	x	-23	99	92
O=C(CCc1ccccc1)N1CCC(N2CCN(Cc3ccc(F)cc3)C(=O)C2=O)CC1	98	-17	x	x
O=C(COc1ccccc1)OCC(=O)c1ccc(O)cc1O	x	-20	97	89
CSc1nc2ccccc2n1CN1CCN(Cc2cccs2)CC1	x	-2	86	99
CC(=O)N/C(N)=N/c1nc2ccccc2s1	103	-28	94	64
Cc1ccc(Cl)cc1Nc1nn2c(=O)c3ccc(C(=O)NCc4cccs4)cc3nc2s1	106	x	90	75
CCOC(=O)C1=C(C)NC(SCC(N)=O)=C(C#N)C1c1ccccc1 (stereo not drawn)	101	x	82	72
CN(C=O)CP(=O)(O)CCc1ccccc1	x	-2	94	85
Cc1cnc(Nc2nc3ccccc3o2)nc1C(=O)Nc1cccc(C(F)(F)F)c1	100	-26	105	77
Cc1ccc(NC(=O)Cn2c(C)cc(C)c(C#N)c2=O)cc1	98	x	92	86
O=C(c1cccnc1)N1CCN(CCN2C(=O)C3C4C=CC(C4)C3C2=O)CC1 (stereo not drawn)	103	-8	74	105
CCCN(Cc1nnc(-c2ccco2)o1)C(=O)c1ccccc1SCC(=O)N1CCCC1	x	-39	105	88
COc1cc(/C=C2\NC(=S)N(C)C2=O)ccc1OCc1ccccc1Cl	98	x	75	83
O=C(O)c1cc(N2CCCN(c3ncccn3)CC2)nc2ccc(NC(=O)C3CCC3)cc12	114	-42	x	x
O=c1[nH]c(=S)[nH]c(O)c1N=Nc1ccc(O)cc1	238	-156	82	77
CCn1cnc2cc(NS(=O)(=O)c3ccc(C)cc3)ccc21	91	x	112	77
CN1CCN(CC(=O)N2c3ccccc3Sc3ccc(Cl)cc32)CC1	106	10	106	94
Cc1[nH]c2ccc(C(=O)NC(C)C)cc2c1C	108	-33	112	80
CCN(CC)C(=O)c1cc(-c2ccc(Br)cc2)on1	99	-8	104	84
CCC(CC)C(=O)Nc1cc(-c2cn3cccnc3n2)ccc1OC	102	x	82	98
O=C(COC(=O)c1cc(-c2cccs2)nc2ccccc12)c1ccc(Cl)cc1	99	-18	96	95
Cc1ccc(CNC(=O)C(=O)Nc2c3c(nn2-c2ccc(F)cc2)CSC3)cc1	102	x	140	74
CC(C)N1CN=C2SC(CO)(CO)C(=O)N2C1	110	-67	79	72
CC(=O)N1CCc2cc(C(=O)CN3CCN(Cc4ccccc4)CC3)ccc21	105	3	112	98

Arranged by heavy-atom count (largest number first): some entries from above
SMILES	GIV Gai3 FP	HCMV NEC inh	Sa growth inh	Sa growth inh second temp
Cc1ccc(CNC(=O)C(=O)Nc2c3c(nn2-c2ccc(F)cc2)CSC3)cc1	102	x	140	74
CC(=O)N1CCc2cc(C(=O)CN3CCN(Cc4ccccc4)CC3)ccc21	105	3	112	98
CCC(CC)C(=O)Nc1cc(-c2cn3cccnc3n2)ccc1OC	102	x	82	98

New compounds follow.
SMILES	GIV Gai3 FP	HCMV NEC inh	Sa growth inh	Sa growth inh second temp
CC(C)(C)NCC(=O)Nc1cc(C(C)(C)C)nn1-c1ccccc1	x	-30	72	89
NNc1ccc(Cl)c(C(=O)O)c1	x	-20	97	88
CC(=O)N1CCC(N(Cc2ccc(C)o2)C(=O)Nc2ccccc2F)CC1	107	x	120	93
CCNC(=S)N1CCn2cccc2C1c1ccc(C)cc1 (stereo not drawn)	104	9	92	86
COc1ccc(S(=O)(=O)N(C(C)=O)c2ccc3oc(=O)sc3c2)cc1	106	-18	52	31
CCCNC(=O)C1CCCN(c2ccnc(-c3ccc(F)cc3)n2)C1 (stereo not drawn)	104	-8	x	x
CCc1nn2c(=O)cc(COc3ccc(-c4nc5sc6c(c5c(=O)[nH]4)CCCC6)cc3)nc2s1	99	-22	x	x
Cc1c(C)c2c(cc(C)c3c(-c4ccc(Br)cc4)coc32)oc1=O	104	-21	101	90
O=C(C1c2ccccc2Oc2ccccc21)N(Cc1nnc(-c2ccccc2Cl)o1)C1CC1	x	6	110	95
O=S(=O)(NCCc1csc(-c2ccc(Cl)cc2)n1)c1ccccc1	101	-33	x	x
COc1ccc(OCC(=O)Nc2cc(OC)ccc2NC(=O)c2ccco2)cc1	106	-7	117	90
CC(C)(C)S(=O)(=O)c1cnc(-c2cnccn2)nc1N	97	-8	96	88
CC(CCc1ccccc1)NC(=O)CN1C(=O)c2ccccc2S1(=O)=O (stereo not drawn)	x	-29	114	92
COc1ccc2oc(-c3cccc(NC(=O)c4sc5c([N+](=O)[O-])cccc5c4Cl)c3)nc2c1	96	3	89	98
CCN(CC)CCNC(=O)c1ccc2c(=O)n3nc(Nc4ccccc4OC)sc3nc2c1	104	x	110	104
O=C(Cn1ncc2c3ccccc3n(Cc3cccc(Cl)c3)c2c1=O)NCCCc1ccccc1	199	-37	89	80
C=CCn1c(SCC(=O)O)nnc1-c1ccc(Cl)cc1Cl	x	-13	72	90
Cc1onc(-c2c(Cl)cccc2Cl)c1C(=O)Nc1cccc2c1C(=O)c1ccccc1C2=O	112	-20	x	x
Cn1nc(C(=O)Nc2ccccc2)c(Cl)c1C(F)(F)F	102	-12	x	x
O=C1OCc2cc(-n3[nH]nnc3=S)ccc21	103	-10	111	76
O=C(Nc1ccc(-c2nc3ccccc3o2)cc1)c1ccc(F)cc1	136	-15	x	x
Cc1ccc2nc(-c3ccc4nc(N)sc4c3)oc2c1	114	-19	78	41
Cn1c(=O)c2c(ncn2CC(O)CN2CCN(c3ncccn3)CC2)n(C)c1=O (stereo not drawn)	107	-21	95	92
CCC(=O)NC(C)C12CC3CC(CC(C3)C1)C2 (stereo not drawn)	99	-8	108	95
Cc1cc(N2CCCC2)nc2ccc(NC(=S)NCCN3CCc4ccccc4C3)cc12	94	x	63	60
S=c1[nH]c(-c2ccccc2)c(-c2ccccc2)o1	103	12	96	97
Cc1cc(C(=O)NCc2ccco2)c2ccccc2n1	x	-9	97	97
CCOC(=O)c1c(C)nn(C)c1C	104	5	x	x
CCc1ccc(Nc2nnc(Cc3ccc(OC)cc3)c(=O)[nH]2)cc1	105	-6	99	87
Cn1c(CNc2ccc(F)cc2)nc2ccccc21	102	x	95	75
CC(C)c1ccc2[nH]c(O)c(N=NC(=O)c3ccccc3O)c2c1	x	-29	110	102
CC1CN(C(=O)/C=C/c2ccco2)C(C)CN1C(=O)/C=C/c1ccco1 (stereo not drawn)	105	-20	96	96
CCN1C(=O)c2ccc(C(=O)NCC(C)C)cc2C1=O	106	-93	102	99
CC(C)CCNC(=O)C1CCN(c2nnc(-n3cccc3)s2)CC1	108	x	93	92
COc1ccc2c(c1)C1(Nc3ccccc3-c3nc4ccccc4n31)C(=O)N2C (stereo not drawn)	106	2	107	105
CCOc1ccc(Nc2nc3c(S(=O)(=O)c4cccc(Cl)c4)nnn3c3ccsc23)cc1	104	x	92	91
c1ccc(CNCCSc2nnnn2-c2ccccc2)cc1	101	-22	82	72
CCC(CO)NCc1ccc(-c2ccc(Cl)cc2Cl)o1 (stereo not drawn)	103	-22	x	x
CCCC(=O)Nn1cnc2c(c1=O)C1(CCCC1)Cc1ccccc1-2	107	x	98	104
CCCc1ccc(OCCNC(=O)c2ccco2)cc1	x	-20	84	98
N/C(Cc1ccc(Cl)cc1)=N\O	100	-14	92	89
CC1CCC(NC(=O)CCCn2c3ccccc3c3cn[nH]c(=O)c32)CC1 (stereo not drawn)	107	-8	103	83
O=C(Nc1cccc(S(=O)(=O)c2cccc(NC(=O)c3ccco3)c2)c1)c1ccco1	107	8	91	56
Nc1ccc2c3c(cccc13)C(=O)C=C2	-30*	57*	103	48
Cc1ccc(S(=O)(=O)Nc2cc3[nH]c(=O)[nH]c3cc2C)cc1F	106	-16	x	x
Cc1cc(C)nc(NC(c2ccccc2)c2cc(C)sc2NC(=O)c2ccccc2)n1 (stereo not drawn)	109	-8	x	x
Cc1ccc(NNC(=S)NCC2CCCO2)c(C)c1 (stereo not drawn)	x	-3	117	81
COC(=O)c1sc(OC)cc1OC(=O)c1ccco1	99	-18	92	79
NNC(=O)c1cccc(COc2ccc(C3SCCS3)cc2)c1	104	-22	124	80
CC1=C(C(=O)OCc2ccc3c(c2)OCO3)C(c2cccc([N+](=O)[O-])c2)NC(=O)N1 (stereo not drawn)	96	-5	x	x
COc1ccccc1CC1(C)NC(=O)N(CC(=O)c2ccc3c(c2)OCO3)C1=O (stereo not drawn)	x	4	107	100
O=C(Nc1ccccc1Cl)C1(c2ccccc2)CCOCC1	x	-4	115	93
CC(=O)c1cc(-c2ccc(F)cc2)n(CC(=O)NC2CCCCCC2)c1C	104	x	131	74
CCCc1ccc(S(=O)(=O)N(Cc2ccc(OC)cc2)Cc2[nH]c(C)c(C(=O)OCC)c2C)cc1	98	-32	x	x
CCCn1cnc2nc(CSc3ccccc3NC(=O)Nc3ccc(C)c(Cl)c3)cc(=O)n21	102	-12	x	x
CC(NC(=O)CSc1nc(N)cc(N)n1)C12CC3CC(CC(C3)C1)C2 (stereo not drawn)	x	0	110	93
Cc1cc(C)n(C(C)CC(=O)Nc2cccc(C#N)c2)n1 (stereo not drawn)	93	x	87	90
Cc1c(C)c(C)c(CSc2ccccn2)c(C)c1C	97	-26	95	91
CCOc1ccc(-n2c(-c3ccc(Cl)cc3)cn3c4c(=O)n(C)c(=O)n(C)c4nc23)cc1	99	-24	x	x
Cn1c(CCc2ccccc2NC(=O)C2CCCN(S(=O)(=O)N3CCCC3)C2)nc2ccccc21 (stereo not drawn)	103	-21	x	x

The list goes on.
SMILES	GIV Gai3 FP	HCMV NEC inh	Sa growth inh	Sa growth inh second temp
COc1cccc(NC(=O)Cn2c(=O)n(Cc3ccccc3)c(=O)c3c2c2cc(C)ccc2n3C)c1	104	x	116	91
C(=Nc1ccc2nc(-c3ccccc3)[nH]c2c1)c1ccccc1	x	-1	98	89
CCOCCOC(=O)C1=C(C)NC2=C(C(=O)CC(c3ccc(Cl)cc3)C2)C1c1ccc2c(c1)OCO2 (stereo not drawn)	107	-1	x	x
O=C(Nc1ccc(Br)cc1)c1ccc2c3c(onc13)-c1ccccc1C2=O	100	-38	114	96
CC(C)n1cnc2nc(CSc3ccc(NC(=O)Nc4cccc(F)c4)cc3)cc(=O)n21	104	-22	x	x
CC1=CC(=C2C(=O)NC(=O)NC2=O)C=C(C)N1CCN1CCOCC1	104	-16	88	89
CCS(=O)(=O)c1nc(S(=O)(=O)c2ccc(Cl)cc2)c(NCC2CCCO2)s1 (stereo not drawn)	107	-16	85	85
CCOC(=O)c1c(NC(=O)c2nc(SCC)ncc2Cl)sc(C(C)=O)c1C	96	3	93	92
Cc1ccc(NC(=O)NCCCN2CCC(N3CCCCC3)CC2)cc1C	104	-24	80	85
FC(F)(F)c1ccc(NC(=S)N2CCn3cccc3C2c2cccs2)cc1 (stereo not drawn)	108	x	44	39
OC(CNC1CCCC1)COc1ccc(OCC(O)CNC2CCCC2)cc1 (stereo not drawn)	107	-13	111	93
O=C(O)CCN1C(=O)/C(=C/c2ccco2)SC1=S	96	-90	x	x
CC1CCCCN1C(=O)c1ccc(N)cc1 (stereo not drawn)	98	-3	91	85

Shown with bars between the fields: part of the list above
canonical_smiles | GIV Gai3 FP | HCMV NEC inh | Sa growth inh | Sa growth inh second temp
N/C(Cc1ccc(Cl)cc1)=N\O | 100 | -14 | 92 | 89
CC1CCC(NC(=O)CCCn2c3ccccc3c3cn[nH]c(=O)c32)CC1 (stereo not drawn) | 107 | -8 | 103 | 83
O=C(Nc1cccc(S(=O)(=O)c2cccc(NC(=O)c3ccco3)c2)c1)c1ccco1 | 107 | 8 | 91 | 56
Nc1ccc2c3c(cccc13)C(=O)C=C2 | -30* | 57* | 103 | 48
Cc1ccc(S(=O)(=O)Nc2cc3[nH]c(=O)[nH]c3cc2C)cc1F | 106 | -16 | x | x
Cc1cc(C)nc(NC(c2ccccc2)c2cc(C)sc2NC(=O)c2ccccc2)n1 (stereo not drawn) | 109 | -8 | x | x
Cc1ccc(NNC(=S)NCC2CCCO2)c(C)c1 (stereo not drawn) | x | -3 | 117 | 81
COC(=O)c1sc(OC)cc1OC(=O)c1ccco1 | 99 | -18 | 92 | 79
NNC(=O)c1cccc(COc2ccc(C3SCCS3)cc2)c1 | 104 | -22 | 124 | 80
CC1=C(C(=O)OCc2ccc3c(c2)OCO3)C(c2cccc([N+](=O)[O-])c2)NC(=O)N1 (stereo not drawn) | 96 | -5 | x | x
COc1ccccc1CC1(C)NC(=O)N(CC(=O)c2ccc3c(c2)OCO3)C1=O (stereo not drawn) | x | 4 | 107 | 100
O=C(Nc1ccccc1Cl)C1(c2ccccc2)CCOCC1 | x | -4 | 115 | 93
CC(=O)c1cc(-c2ccc(F)cc2)n(CC(=O)NC2CCCCCC2)c1C | 104 | x | 131 | 74
CCCc1ccc(S(=O)(=O)N(Cc2ccc(OC)cc2)Cc2[nH]c(C)c(C(=O)OCC)c2C)cc1 | 98 | -32 | x | x
CCCn1cnc2nc(CSc3ccccc3NC(=O)Nc3ccc(C)c(Cl)c3)cc(=O)n21 | 102 | -12 | x | x
CC(NC(=O)CSc1nc(N)cc(N)n1)C12CC3CC(CC(C3)C1)C2 (stereo not drawn) | x | 0 | 110 | 93
Cc1cc(C)n(C(C)CC(=O)Nc2cccc(C#N)c2)n1 (stereo not drawn) | 93 | x | 87 | 90

GIV Gai3 FP, hit marks shown above.
Compound,GIV Gai3 FP,Sa growth inh,Sa growth inh second temp
Nc1ccc2c3c(cccc13)C(=O)C=C2,-30*,103,48

Outcome played no part in choosing rows, and some 0.82% of all compounds hit somewhere here.
